# D2 agonist: activates the human D2 dopamine receptor | P14416 | DiscoveRx PathHunter D2 beta-arrestin, luminescence, 90 min; 100% = 57 uM dopamine signal | activation, % (concentration not given with the values) | hit rate 0.084% among 360,000; in the data active = activation above about 40%; inconclusive = about 15% to 40%; inactive = below about 15%; note: compound concentration not given in the record; the text of the record calls up to 30% inactive
#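 Agonist mode: compounds alone added to overnight-plated D2 PathHunter cells for 90 min at 37 C, with 57 uM final dopamine (EC100) defining full response. Beta-arrestin recruitment detected by chemiluminescent reagent, read after 1 h at ambient temperature.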
# Sfp inh: Sfp phosphopantetheinyl transferase inhibition. Q9F4F7. Biochemical Sfp PPTase activity, qHTS. Potency, µM, inactives show max response, negative = inhibition, hits mostly inhibitors. hit rate 3.5% among 310,000. AID 1490; active = well fitted inhibition curve with a large enough effect; inconclusive = small, poorly fitted or top-dose-only effect, or another doubt; inactive = no such curve, though single readings can be large or run the other way;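 note: the enzyme is Sfp with the accession as filed and its product quenches rhodamine fluorescence; potency is the fitted concentration of half-maximal effect; 0% = enzyme reaction without inhibitor and -100% = no enzyme wells; top concentration of the series not given in the record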
#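 With Hepes-Na pH 7.6 buffer containing 10 mM MgCl2, Sfp (15 nM) modified BHQ-2-YbbR (12.5 uM) using rhodamine-CoA (5 uM). Two reads 30 minutes apart at 525/598 nm yielded each well's rate.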
# Six1-Eya2 inh: blocks human Six1 binding to Eya2 | activity change, % (concentration not given with the values) | AlphaScreen GST-Six1/His-Eya2 binding, biochemical; hits give low values; control for the full effect not named in the record | Q15475+O00167 | hit rate 0.56% among 360,000; in the data active = activity change below about -65%; inconclusive = about -30% to -65%; inactive = above about -30%; note: % is set by controls: 0 for no effect and ±100 for the full control effect
# Target sequence (O00167 whole entry, looked up): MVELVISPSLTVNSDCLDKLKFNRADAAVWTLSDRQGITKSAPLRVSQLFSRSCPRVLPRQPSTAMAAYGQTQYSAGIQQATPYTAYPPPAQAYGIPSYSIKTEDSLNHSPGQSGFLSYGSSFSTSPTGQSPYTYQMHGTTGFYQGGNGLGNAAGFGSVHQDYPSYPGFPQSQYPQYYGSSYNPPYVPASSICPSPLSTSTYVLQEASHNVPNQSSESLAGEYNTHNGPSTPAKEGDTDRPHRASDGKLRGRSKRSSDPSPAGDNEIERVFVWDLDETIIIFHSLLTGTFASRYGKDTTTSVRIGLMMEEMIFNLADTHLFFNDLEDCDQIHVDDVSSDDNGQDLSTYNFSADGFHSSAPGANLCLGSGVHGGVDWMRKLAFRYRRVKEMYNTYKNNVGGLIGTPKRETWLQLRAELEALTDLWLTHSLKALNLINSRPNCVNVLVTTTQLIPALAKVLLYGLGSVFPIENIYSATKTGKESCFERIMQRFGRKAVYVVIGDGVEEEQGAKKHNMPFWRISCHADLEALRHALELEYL
# Target sequence (Q15475 whole entry, looked up): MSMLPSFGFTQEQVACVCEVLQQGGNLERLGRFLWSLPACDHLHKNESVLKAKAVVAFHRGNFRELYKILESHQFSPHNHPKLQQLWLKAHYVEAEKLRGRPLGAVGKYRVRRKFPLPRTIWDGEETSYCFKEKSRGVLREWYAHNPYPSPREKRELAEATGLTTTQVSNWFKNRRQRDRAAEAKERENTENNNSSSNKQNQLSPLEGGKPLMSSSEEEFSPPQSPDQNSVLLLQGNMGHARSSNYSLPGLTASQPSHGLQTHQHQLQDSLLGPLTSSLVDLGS
#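 GST-Six1 + His-Eya2 (5X stock: 250/500 nM); Tris pH 8.0, 300 mM NaCl, 0.05% BSA, 0.02% Tween 20; GSH donor/Ni acceptor beads; 1 h 37 °C dark; AlphaScreen readout.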
# TRPV1 PAM: human TRPV1 potentiation. Q8NER1. TRPV1-expressing cells, Fluo-8 calcium influx, capsaicin EC20 potentiation; host cell line not named in the record; control for the full effect not named in the record. potentiation, % at 8.33 µM. hit rate 0.02% among 320,000. AID 540277; active means potentiation above 80%; inconclusive means 30% to 80%; inactive means below 30%; note: 0% is about no effect
#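 Fluo-8 calcium influx in TRPV1-expressing cells, kinetic read (ex 480/em 520 nm). Compound added and read 3 min for agonist activity, followed by capsaicin at EC20 final and 2 min further read for enhancement.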
# PINK1 modulator: modulators of PINK1 expression; PINK1 immunofluorescence, high-content cytometry, 24 h; Potency, µM (doses to about 76.6 µM), inactives show top-dose activation (PINK1 increase), usual class: activators; hit rate 0.2% among 410,000; AID 624263; active = well fitted activation curve with a large enough effect; inconclusive = small, poorly fitted or top-dose-only effect; inactive = flat fitted curve, though single readings scatter; cell line not stated here;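 note: potency is the fitted concentration of half-maximal effect; % of control where 0% means no effect; nearly all actives have a fitted effect of over 65% in size; a mitochondrial uncoupler was the plate control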
#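 A stable cell line was treated with compounds at 5 concentrations for 24 hours, with CCCP as control. PINK1 levels and mitochondrial localization were measured by immunofluorescence with mitochondrial, cell and nuclear markers after fixation, read by laser-scanning cytometry.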
# CtBP-E1A inh: inhibitors of CtBP/E1A interaction; hit rate 0.49% among 340,000; activity change, % (no concentration beside the values); AlphaScreen GST-E1A/His-CtBP binding, 1536-well; hits give low values; control for the full effect not named in the record; in the data active means activity change below about -65%; inconclusive means about -30% to -65%; inactive means above about -30%; note: % is set by controls: 0 for no effect and ±100 for the full control effect; compound concentration not given in the record
#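 Homogeneous bead-based format: GST-tagged E1A captured on glutathione donor beads, His-tagged CtBP on nickel acceptor beads; compounds precede bead addition by 2 h at 37 °C.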
# D2 PAM: positive allosteric modulators of human D2 dopamine receptor | P14416 | DiscoveRx D2 beta-arrestin cells, luminescence, 90 min; 100% = 57 uM dopamine signal | potentiation, % (concentration not given with the values) | hit rate 0.23% among 360,000; active = potentiation of 50% or more; inconclusive = 30% to 50%; inactive = 30% or less;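 note: compound concentration not given in the record; tested on top of an EC20 dose of dopamine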
#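 PathHunter beta-arrestin assay in DiscoveRx D2 cells. Compounds were added with an EC20 of dopamine (50 nM final) for 90 min at 37 deg C. Luminescence was read 1 h after detection reagent, with 57 uM dopamine as the EC100 control.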
# Numbers without * were called inactive; ? = inconclusive; . = not tested or not shown; & = joins results of further samples; [ ] = another dose, or the depositor's remark. An unsorted share of the library. About 3.7% of those tested had a hit in this group.
SMILES,D2 agonist,Sfp inh,Six1-Eya2 inh,TRPV1 PAM,PINK1 modulator,CtBP-E1A inh,D2 PAM
O=C(NC1CCCC1)C(c1cccnc1)N(C(=O)c1ccco1)c1ccc(F)cc1 (stereo not given),5.5,7%,0,10,0.2%,7,2
O=C(N/N=C/c1ccc(Cl)c([N+](=O)[O-])c1)c1ccc2nc[nH]c2c1,1.0,-5%,-6,-4,1.3%,-6,-11
COc1cccc(Nc2nc(-c3ccc(O)cc3)cs2)c1,0.3,-2%,-2,28,?,19,-11
Cc1ccc(-c2nc(CSc3nc4ccccc4c(=O)n3CCO)cs2)cc1,-1.3,-7%,-4,2,11%,2,-8
CCCc1sc(N/N=C/c2ccccn2)nc1-c1ccc(F)cc1,2.1,-10%,-28,-8,13µM*,6,16
CC(C)(C)OC(=O)NN1CC(=O)N2Cc3[nH]c4ccccc4c3C[C@H]2C1=O,0.9,12%,3,21,2.8%,3,12
CCOC(=O)N1CCN(S(=O)(=O)c2ccc(OC)c3ccccc23)CC1,-2.7,-3%,-1,16,-1.1%,3,-18
COC(=O)c1ccccc1NC(=O)Nc1cccc(C)n1,0.1,23%,5,3,1.4%,14,4
Cc1cc(C(=O)CN2C(=O)CN(C)C2=O)c(C)n1-c1cccc(S(=O)(=O)N2CCOCC2)c1,-0.2,-2%,-2,14,0.7%,.,-11
Cc1ccc(NC(=O)CCCn2nc(C)c3c(C)n(-c4ccccc4)nc3c2=O)c(Cl)c1,2.2,0%,1,7,0.1%&-0.7%,1,-14
Cc1cccc(OCC(=O)NCC2CCCO2)c1C (stereo not given),2.3,16%,7,-3,-0.7%,-5,-3
CCOC(=O)Cc1c(C)c2c(O)cc(O)cc2oc1=O,0.0,4%,-2,-17,-16%[38.3 µM],10,-11
CCOC(=O)c1ccc(NC(=O)CSc2nc(C)nc3c2c(=O)n(C)c(=O)n3C)cc1,9.4,-4%,8,0,-0.4%,-9,0
O=C(Cc1c[nH]c2ccccc12)OCC(=O)c1ccccc1,1.0,13%,2,6,2.4%,0,-12
COc1ccccc1C(=O)Nc1ccc2c(c1)OCO2,-2.3,15%,-1,-7,4.8%[38.3 µM],-4,-14
CCOC(=O)COc1coc(CN2CCN(c3ccccc3)CC2)cc1=O,-0.6,14%,-1,29,-0.3%,-11,-11
CCOc1cc(NS(=O)(=O)c2ccc(NC(C)=O)cc2)c(OCC)cc1NC(=O)C(C)C,2.7,15%,1,-16,1.0%[38.3 µM],4,10
O=C(NC1CCN(Cc2ccccc2)CC1)c1ccccc1NS(=O)(=O)c1ccc(F)c(F)c1,4.6,.,9,.,0.7%,3,-3
CC[C@]12c3[nH]c4ccc(Cl)cc4c3CCN1C(=O)[C@@H](CC(=O)NCc1cccc(C(F)(F)F)c1)C[C@@H]2C(=O)N1CCN(C(=O)c2ccco2)CC1,-1.8,.,-5,.,13%,-4,.
CN(CC(=O)Nc1c(Cl)cccc1Cl)C(=O)CCCN1C(=O)c2ccccc2C1=O,-0.3,-2%,4,19,1.4%[38.3 µM],4,7
O=C(COc1cccnc1[N+](=O)[O-])Nc1ccc(Cl)c(S(=O)(=O)N2CCOCC2)c1,1.4,0%,2,.,1.3%,-3,2
O=C(CCl)Nc1ccc(N2CCCCCC2)cc1,7.0,-9%,-17,-6,-2.4%,-13,2
CN1CCN(C2CCN(c3cccc(Cl)c3)CC2)CC1CCO (stereo not given),-0.1,8%,-1,-2,0.0%,.,-2
CC(=O)NN1C(=O)c2ccc(Oc3cccc([N+](=O)[O-])c3)cc2C1=O,0.7,13%,6,.,?,4,-8
COc1ccc(NS(=O)(=O)c2cc(N/C(=N\S(=O)(=O)c3ccccc3)c3ccc(F)cc3)ccc2Cl)cc1,3.6,16%,-3,-9,18%,-12,-14

# Brought forward from above: 4 compounds, then new ones.
SMILES,D2 agonist,Sfp inh,Six1-Eya2 inh,TRPV1 PAM,PINK1 modulator,CtBP-E1A inh,D2 PAM
O=C(CCl)Nc1ccc(N2CCCCCC2)cc1,7.0,-9%,-17,-6,-2.4%,-13,2
CN1CCN(C2CCN(c3cccc(Cl)c3)CC2)CC1CCO (stereo not given),-0.1,8%,-1,-2,0.0%,.,-2
CC(=O)NN1C(=O)c2ccc(Oc3cccc([N+](=O)[O-])c3)cc2C1=O,0.7,13%,6,.,?,4,-8
COc1ccc(NS(=O)(=O)c2cc(N/C(=N\S(=O)(=O)c3ccccc3)c3ccc(F)cc3)ccc2Cl)cc1,3.6,16%,-3,-9,18%,-12,-14
CC1(C)Cc2cccc(OCC(=O)Nc3ccc(OCC(N)=O)cc3)c2O1,-7.3,25%,4,-13,-1.1%,-7,-11
Nc1nc(NCCc2ccccc2)nc(NCc2ccccc2)c1[N+](=O)[O-],-1.6,-15%,-18,-3,2.2%,-10,3
CCOC(=O)C1(Cc2ccccc2)CCN(Cc2cccc3nccnc23)CC1,-1.4,13%,-4,?,-1.6%,-14,-14
CC1SC(c2ccc(F)cc2)N(CCc2ccccc2)C1=O (stereo not given),7.0,3%,10,11,0.3%,4,5
O=C(NCc1ccc(F)cc1)C1CCCN(C(=O)NCc2ccccc2)C1 (stereo not given),-4.1,12%,7,-8,4.2%,13,-7
CNC(=O)CCCc1nc(-c2ccccc2Cl)no1,-3.0,5%,-1,1,2.1%[38.3 µM],-1,-3
CC(/C=C/c1cccc([N+](=O)[O-])c1)=N/NC(=O)c1cccnc1,-4.4,28%,-14,6,-0.5%,3,-22
CC(OC(=O)c1oc2ccccc2c1COc1ccccc1)C(N)=O (stereo not given),3.7,-23%,0,4,3.5%,4,-4
CN1CCC(N(C)C(=O)Cc2ccccc2[N+](=O)[O-])CC1,-5.0,2%,-11,-3,-1.0%,-13,-8
CC(=O)OC(Cn1ccnc1)c1ccccc1 (stereo not given),-3.0,23%,0,-2,2.8%,-3,-3
COc1ccc(NC(=O)c2cc(S(=O)(=O)N(Cc3ccccc3)c3ccccc3)ccc2Cl)cn1,-3.5,4%,-1,-16,1.8%,-1,-6
CCOC(=O)N1CCN(C(=O)C[C@@H]2C[C@@]3(C(=O)OC)CCCCC=C3N(Cc3ccccc3)C2=O)CC1,.,.,-2,.,-0.4%,5,.
Nc1ncnc2oc(-c3ccco3)c(-c3ccco3)c12,-1.3,20µM*,?,-12,-0.7%[38.3 µM],?,-7
COc1ccc(NC(=O)CSc2n[nH]c(N)n2)cc1OC,0.3,-4%,6,1,0.2%,-1,-10
CCOc1ccc(CCNC(=O)CCc2nnc3ccc(N4CCOCC4)nn23)cc1,-2.4,8%,5,-12,0.3%,1,-2
Cc1ccc(S(=O)(=O)N(C)C)cc1NC(=S)NCCc1ccccn1,0.9,?,-5,6,-0.6%,.,-19
CCOc1ccc(/C=C2/C(=O)N(c3ccc(OC)cc3)C(=S)N2CC(=O)OC)cc1OCC,-4.1,-11%,3,-41,14%,1,10
CSCC(C)N1CCC(CO)(CCCc2ccccc2)CC1 (stereo not given),-2.4,0%,1,-3,-0.6%,10,-19
CCCc1nnc(SCC(=O)N2CCCCC2C)n1CC1CCCO1 (stereo not given),-2.7,21%,-2,10,0.4%,2,-7
Cc1cnc(C)c(Nc2nc(C(N)Cc3ccc(F)cc3)cs2)n1 (stereo not given),-4.8,.,?,.,-0.3%,?,-9
CC(=O)Nc1cc(-c2ccc(C(=O)NC3CC3)cc2)cn2c(-c3cccc(C(C)=O)c3)cnc12,7.4,.,-11,.,6.4%,-23,-10
CN1CC=C2C(C#N)=C(N)C(C#N)(C#N)C(c3ccsc3)C2C1 (stereo not given),-2.4,2%,-10,18,10µM*,-4,-30
O=C(COc1cc(Cl)ccc1Cl)Nc1ccc2c(c1)CCC2,-5.8,-7%,3,14,10%,0,-5
COc1ccc(NC(=O)Nc2ccccc2C)c(OC)c1,0.1,12%,1,-14,0.0%,0,-1
Cc1cc(NC(=O)CSc2ncnc3c2cnn3-c2cccc(Cl)c2)no1,2.0,22%,-1,4,0.6%,5,-4

# Some values from above:
# D2 agonist, `CCOc1ccc(/C=C2/C(=O)N(c3ccc(OC)cc3)C(=S)N2CC(=O)OC)cc1OCC` reads -4.1
# TRPV1 PAM, `CN1CC=C2C(C#N)=C(N)C(C#N)(C#N)C(c3ccsc3)C2C1` (stereo not given) reads 18

# Later entries
SMILES,D2 agonist,Sfp inh,Six1-Eya2 inh,TRPV1 PAM,PINK1 modulator,CtBP-E1A inh,D2 PAM
O=C(c1ccc(-c2ccc([N+](=O)[O-])cc2Cl)o1)N1CCOCC1,2.8,40µM*,10,-15,11%,3,3
O=C(O)Cc1cccc(=O)c(O)c1C(=O)O,-1.3,.,-73*,.,-3.9%,?,-6
CCn1nc(C)c(NC(=O)CSc2nnc(-c3ccco3)n2C)c1C,0.9,12%,1,2,-1.0%[38.3 µM],1,7
CCC1(CC)Cc2ccccc2-c2[nH]c(=S)[nH]c(=O)c21,-5.3,.,15,.,2.1%,-2,-21
Cc1cc(C)n2nc(C(=O)N/N=C/c3ccc(Cl)cc3)nc2n1,-5.8,21%,7,3,-1.0%,.,-5
CNC(=O)CSc1nnc(CCc2ccccc2)n1-c1ccccc1,-1.2,-3%,-1,-2,-1.9%[38.3 µM],7,-4
COc1ccccc1N1CCN(CC(=O)Nc2ccc(C)c(F)c2)CC1,-3.6,?,2,-11,-0.5%,1,-37
Cc1ccccc1NC(=S)c1nc2ccccc2[nH]1,-2.8,13%,-90*,3,29%,-84*,-3
COC(=O)c1sc(S(=O)(=O)Nc2c(C)nn(C)c2C)c(C(=O)OC)c1C,-2.7,.,-5,26,-2.6%,3,-13
COc1ccc(NC(=O)CN(C)C(=O)c2cccc(Oc3ccccc3)c2)cc1,-4.4,.,3,-10,0.8%,.,-5
O=C(OCC(=O)N1CCCc2ccccc21)c1ccc(Br)o1,-0.9,5%,4,-12,0.3%,-1,-18
CO/N=C(/C)CCS(=O)(=O)c1ccccc1,1.8,17%,2,-18,-0.3%,10,-1
Cc1ccc(NCCC(=O)c2ccc(Cl)cc2)cc1,-0.2,17%,-2,3,3.6%[38.3 µM],3,0
CCCCCCCN1C=CC(=O)CC1,7.4,3%,6,-29,-0.8%,2,-4
Cc1ccc(SC[C@H](C)CN2CC[C@H](C(C)(C)C)CCC2=O)cc1,-0.3,-10%,5,-1,5.4%,8,-12
COC(=O)c1ccc2c(=O)n(-c3ccccc3)c(SCN3C(=O)c4ccccc4C3=O)nc2c1,-0.6,-8%,-3,11,5.0%,1,-4
COC(=O)Nc1sc2c(c1C(N)=O)CCC(C)C2 (stereo not given),-3.0,3.5µM*,2,3,0.4%,-3,5
O=C(CNS(=O)(=O)c1ccc(Br)cc1Cl)OCC(=O)N1CCCC1=O,-3.5,.,26,-8,0.7%,4,0
